VDR inh: Inhibitors of the vitamin D receptor (VDR): qHTS; actives 0.93% (n = 400,000); Potency, µM, without a hit: max response, negative = inhibition, hits mostly inhibitors; VDR-SRC2-3 peptide fluorescence polarization, 2 h; AID 504847, 2011; Vitamin D3 receptor (Homo sapiens), P11473; active means well fitted inhibition curve with a large enough effect; inconclusive means small, poorly fitted or top-dose-only effect, or another doubt; inactive means no such curve, though single readings can be large or run the other way; further: series mostly up to about 120 µM
Target sequence (P11473 whole entry, looked up): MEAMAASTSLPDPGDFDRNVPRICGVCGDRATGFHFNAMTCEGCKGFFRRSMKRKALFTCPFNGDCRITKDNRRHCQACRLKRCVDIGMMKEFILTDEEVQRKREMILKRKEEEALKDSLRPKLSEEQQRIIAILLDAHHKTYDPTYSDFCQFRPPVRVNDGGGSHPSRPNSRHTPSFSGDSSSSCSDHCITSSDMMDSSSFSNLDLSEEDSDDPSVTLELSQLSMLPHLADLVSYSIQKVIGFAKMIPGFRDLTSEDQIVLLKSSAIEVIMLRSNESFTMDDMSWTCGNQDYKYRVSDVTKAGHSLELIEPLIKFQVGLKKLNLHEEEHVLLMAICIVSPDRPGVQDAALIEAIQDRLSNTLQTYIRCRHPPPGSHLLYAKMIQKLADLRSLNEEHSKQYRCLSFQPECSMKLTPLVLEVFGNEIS
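FP read-out; VDR + SRC2-3 coactivator peptide; 23 nl compound by pintool; 2 h RT incubation; reagents held at 4 deg C, protected from light.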
* hit, by the source's call; ? = inconclusive; [ ] = dose if it differs, or a comment. On the % scale 0 is the no-effect control and ±100 the full control effect; potency means the concentration at half of the fitted maximal effect. This is a subset, so the mix of outcomes need not match the whole.

# | canonical_smiles | VDR inh
1 | O=C(c1ccc(Cl)cc1)N(Cc1cccs1)C1CCS(=O)(=O)C1 (stereo not drawn) | -10.8%
2 | CC(=O)Nc1ccc(NC(=O)C(C)OC(=O)c2cc(S(=O)(=O)N(C)C)ccc2N2CCCC2)cc1 (stereo not drawn) | -9.8%
3 | CCN1CCc2nc(NC(=O)C(c3ccccc3)c3ccccc3)sc2C1 | 15.5%
4 | CCC(=O)N(Cc1cc2ccccc2[nH]c1=O)c1ccccc1OC | -0.5%
5 | CN(CC(=O)Nc1ccccc1Cl)C(=O)CSc1nnc(N)s1 | 2.9%
6 | O=C(O)CCc1nn2cnc3sc4c(c3c2nc1=O)CCCC4 | -5.7%
7 | O=C(Nc1ccccc1)C1=C[C@H](c2ccc3c(c2)OCO3)C[C@H](OCc2ccc(CO)cc2)O1 | -9.4%
8 | NC(=S)Nc1ccc(F)c(F)c1F | -13.9%
9 | COc1cc(C(=O)Nc2cc(C)ccc2OCc2cc(=O)n3cc(C)sc3n2)cc(OC)c1OC | 2.8%
10 | N#C/C(=N\Nc1ccc([N+](=O)[O-])cc1)C(N)=S | ?
11 | COc1cc(/C=N/NC(=S)NC2CC3C=CC2C3)cc(OC)c1OC (stereo not drawn) | -17.1%
12 | CCN(Cc1ccc2c(c1)OCCO2)C(=O)CN1C(=O)NC2(CCCCC2)C1=O | -23.0%
13 | C=CCNC(=O)/C(C#N)=C/c1ccc(SC)cc1 | -15.9%
14 | COc1ccc(CCC(=O)NNC(=O)c2cc(Cl)ccc2OC)cc1 | -6.8%
15 | O=C(O)c1ccc(NC(=S)Nc2ccccc2)cc1 | -18.8%
16 | COc1ccc(OC)c(C(=O)c2c(N)c(-c3nc(-c4ccc(C)c(C)c4)cs3)c3ccccn23)c1 | 9.9%
17 | COCCN(CCOC)C(=O)CN1C(=O)NC2(CCCc3sccc32)C1=O (stereo not drawn) | -1.6%
18 | CSc1ccccc1C(=O)C1CCCN(S(=O)(=O)N(C)C)C1 (stereo not drawn) | -11.8%
19 | CCN(CC)C(=O)c1ccc(NS(=O)(=O)c2ccccc2)cc1 | -14.4%
20 | CCCCN1CNC(=S)N(CCc2ccc(OCC)c(OCC)c2)C1 | -1.5%

The final two compounds of the part above are carried over, then new ones follow:
# | canonical_smiles | VDR inh
19 | CCN(CC)C(=O)c1ccc(NS(=O)(=O)c2ccccc2)cc1 | -14.4%
20 | CCCCN1CNC(=S)N(CCc2ccc(OCC)c(OCC)c2)C1 | -1.5%
21 | CCC(C(=O)NCc1ccc(C)cc1)c1ccccc1 (stereo not drawn) | -3.7%
22 | CC[N+]1(C)CC2CCC(C)(C1)C2(C)C (stereo not drawn) | 3.3%
23 | Cc1cccc(OCC(=O)Nc2ccc(C(=O)Nc3ccccc3C(=O)O)cc2)c1C | -25.6%
24 | Cc1ccc(C)c(CS(=O)(=O)c2cn(CC(=O)N3CCC(C)CC3)c3ccccc23)c1 | 1.1%
25 | CCC(CC)CN1CCC(CN2C(=S)NC[C@@H]2[C@@H](C)CC)CC1 | -3.9%
26 | CCCN1Cc2cccc(C(=O)NCc3ccc4c(c3)OCO4)c2C1=O | 13.2%
27 | O=C(O)c1ccccc1-c1nc2ccccc2c(=O)n1O | 31.7%[activator]
28 | CCC(CC)C(=O)Nc1cccc(C(=O)Nc2ccc(S(=O)(=O)Nc3ccc(C)cc3)cc2)c1 | -9.3%
29 | O=C(N/N=C/c1ccc(Br)o1)c1cc([N+](=O)[O-])cc([N+](=O)[O-])c1 | -0.8%
30 | Cc1cc(C)n(-c2ccc(NC(=O)C3CCN(Cc4ccccn4)CC3)cc2)n1 | 3.5%
31 | CCC(C)C(NC(=O)c1ccc(Cl)cc1)C(=O)O (stereo not drawn) | -1.8%
32 | CCn1cc(C(=O)OC(C)C(=O)Nc2c(C)n(C)n(-c3ccccc3)c2=O)c(=O)c2ccc(C)nc21 (stereo not drawn) | 1.3%
33 | COc1ccc(C)cc1S(=O)(=O)N1CCOCC1 | -24.8%
34 | O=C(NCc1ccc(F)cc1)C1CCC(=O)N1C1CCCCC1 (stereo not drawn) | -8.7%
35 | O=C1CC(c2ccccc2)CC(O)=C1C=NCCN1CCNCC1 (stereo not drawn) | -4.9%
36 | COc1ccc(-c2ccc(SCC(=O)NCC3CCCO3)nn2)cc1OC (stereo not drawn) | ?
37 | Cc1ccc(S(=O)(=O)OCCC2=CC(=O)CCN2Cc2ccccc2)cc1 | -7.7%
38 | CC(=O)c1cccc(NC(=O)C2CCN(C(=O)c3cccs3)CC2)c1 | 9.5%
39 | CCCCSC1(SCCCC)N=C(N)C2(C#N)C(c3ccccc3)NC(C)=CC12C#N (stereo not drawn) | 0.1%
40 | COC(=O)c1cn(C(=O)c2cccs2)c2ccccc12 | -1.1%
41 | Nc1c(C(=O)Nc2ccc(S(=O)(=O)N3CCCC3)cc2)sc2nc3cc4c(cc3cc12)CCC4 | -1.6%
42 | CC1CCCC(C)N1C(=O)COc1ccc(C(=O)N/N=C/c2ccc(C(=O)O)cc2)cc1 (stereo not drawn) | 11.1%
43 | CNS(=O)(=O)c1ccc(NC(=O)C(CCSC)NC(N)=O)cc1 (stereo not drawn) | -2.1%
44 | COc1ccc(C2CC(c3ccc(OC)cc3)n3nc(N)nc3N2)cc1 (stereo not drawn) | -9.6%
45 | O=P(Cc1ccccc1)(c1ccccc1)c1ccccc1 | -13.8%
46 | Cc1c(C(=O)N2CCC(C)CC2)c(S(=O)(=O)Nc2ccc(OC(F)(F)F)cc2)c(C)n1C | 16.2%
47 | CC1(C)CC(=O)c2cc(N=C/C(C(=O)c3ccccc3)=C(\O)c3ccccc3)c(=O)oc2C1 | -20.8%
48 | CCSc1ccccc1C(=O)Nc1nc2ccccc2c(=O)[nH]1 | 7.0%
49 | COc1ccc(C)cc1NC(=O)CSc1nnc(-c2cc(C)[nH]n2)n1N | -18.2%
50 | O=S1(=O)C2CC3CCC2(CN1Cc1cccc(F)c1)O3 (stereo not drawn) | 0.4%
51 | O=C(Nc1ccccc1)NC1CCN(CCCN2C(=O)c3ccccc3C2=O)CC1 | -3.8%
52 | O=C(CSc1ccccc1)NCC(c1ccco1)N1CCCCC1 (stereo not drawn) | 12.6%
53 | CCCCN(CCCC)CCCNC(=O)C1CC(c2ccc(C(F)(F)F)cc2)=NO1 (stereo not drawn) | -23.1%
54 | CC(C)C(NC(=O)c1ccc(S(=O)(=O)N2CCOCC2)cc1)c1nc2ccccc2[nH]1 (stereo not drawn) | 5.9%
55 | CCCNC(=O)c1ccccc1NC(=O)Cc1ccc(OC)c(S(=O)(=O)N2CCOCC2)c1 | -8.7%
56 | CCOc1ccc(-n2nc(C(=O)NC3CCCCC3)c3ccccc3c2=O)cc1 | 21.2%
57 | CC(=O)c1ccc2c(c1)C1C=CCC1C(C(=O)O)N2 (stereo not drawn) | -16.0%
58 | CCOc1cccc(/C=N/NC(=S)NCCN2CCOCC2)c1O | -20.6%
59 | CN(Cc1ccccc1)C(=O)CN1CCN(S(=O)(=O)c2ccc(Cl)c(Cl)c2)CC1 | 14.8%
60 | N#CC1=C(N)Oc2cc(N)ccc2C1c1ccc(F)cc1 (stereo not drawn) | -9.2%
61 | O=[N+]([O-])c1ccc(/C=N/Nc2nc(N3CCCCC3)nc(N3CCCCC3)n2)cc1 | -24.1%
62 | CCCOc1ccc(C2c3c(oc4ccccc4c3=O)C(=O)N2c2nc(C)c(C(=O)OCC)s2)cc1 (stereo not drawn) | -6.6%
63 | CCOc1ccc(NC(=O)c2ccc(N3CC4CC(C3)c3cccc(=O)n3C4)c(NC(=O)CCN3CCOCC3)c2)cc1 (stereo not drawn) | 30.9%[activator]
64 | O=C(Nc1cccc2ccccc12)C12CC3CC(C1)CC(n1cnc([N+](=O)[O-])n1)(C3)C2 | 13.4%
65 | C[C@]12C=CC(=O)C=C1CC[C@@H]1C2C(O)C[C@@]2(C)C1CC[C@]2(O)C(=O)COC(=O)CCC(=O)NC(CC(=O)O)C(=O)O (stereo partly drawn) | -5.5%
66 | CC(C)OC(=O)C1C(=O)CC(C)(O)C(C(=O)OC(C)C)C1c1cccc(O)c1 (stereo not drawn) | 1.3%
67 | CCCCCn1c(=O)c2ccccc2n2c(CCl)nnc12 | -9.3%
68 | NC(=O)c1cc2cc(Cl)ccc2o/c1=N/NC(=O)c1cccs1 | 4.6%
69 | COc1ccc(-c2nn(-c3ccc(C)c(Cl)c3)c3c2cnc2cc(OC)c(OC)cc23)cc1 | 2.3%
70 | CC(C)CCNC(=O)CCn1c(=S)oc2ccccc21 | 3.2%
71 | COc1ccc(C(C#N)Nc2ccccc2OC)cc1 (stereo not drawn) | -2.8%
72 | Cc1cc(SCC(=O)NN)c2cc(Br)ccc2n1 | 28.2µM*
73 | COc1ccc(-c2csc3nc[nH]c(=O)c23)cc1 | 8.7%
74 | Cc1cc(C)c(NC(=O)Cn2c(=O)n(Cc3ccc(C(=O)NCc4ccc5c(c4)OCO5)cc3)c(=O)c3ccccc32)c(C)c1 | 3.2%
75 | CCc1nc(SCC(=O)N2CCCCCC2)c2c(=O)n(C)c(=O)n(C)c2n1 | 4.3%
76 | CC1CCC2(CC1)NC(=O)N(CC(=O)N1CCN(C(=O)c3ccco3)CC1)C2=O (stereo not drawn) | 8.2%
77 | O=C(NCCc1cnc[nH]1)c1cccs1 | -16.2%
78 | Cc1cc(C)c2oc(C(=O)Nc3sc4c(c3C(=O)NCc3ccco3)CCCC4)cc(=O)c2c1 | -9.5%
79 | COc1ccc(-c2cc(C(=O)Nc3cc(C)on3)no2)cc1OC | -2.3%
80 | C/C(Cn1nnc([N+](=O)[O-])n1)=N\NC(=O)c1ccc(O)cc1 | 5.3%

4 entries drawn at random from the list so far, as already listed:
# | canonical_smiles | VDR inh
13 | C=CCNC(=O)/C(C#N)=C/c1ccc(SC)cc1 | -15.9%
69 | COc1ccc(-c2nn(-c3ccc(C)c(Cl)c3)c3c2cnc2cc(OC)c(OC)cc23)cc1 | 2.3%
50 | O=S1(=O)C2CC3CCC2(CN1Cc1cccc(F)c1)O3 (stereo not drawn) | 0.4%
57 | CC(=O)c1ccc2c(c1)C1C=CCC1C(C(=O)O)N2 (stereo not drawn) | -16.0%

More entries follow.
# | canonical_smiles | VDR inh
81 | Cc1onc(-c2ccccc2)c1C(O)c1ccc(F)cc1 (stereo not drawn) | 15.0%
82 | CN(C)c1ccc(S(=O)(=O)N2CCCCC2)cc1NC(=O)CCNC(=O)c1ccccc1Cl | 1.4%
83 | COc1ccccc1CCC(=O)OCC(=O)NC1CCCC1 | -6.1%
84 | Cc1nn(C)c(C)c1CCC(=O)O | -14.1%
85 | COc1ccccc1C(=O)NC(=O)COC(=O)CCOc1cc(C)ccc1C | -6.2%
86 | CCc1ccc(-n2nc3cc(C)c(NC(=O)c4cc(OC)cc(OC)c4)cc3n2)cc1 | -1.6%
87 | CCOc1ccc(-n2c(O)c(/C=N/Nc3nnc(C)c(=O)[nH]3)c3ccccc3c2=O)cc1 | -13.7%
88 | O=C(COC(=O)c1ccccn1)Nc1ncc(C(F)(F)F)cc1Cl | -6.0%
89 | CC(=O)NCCNc1cc(-c2ccccc2C(F)(F)F)ncn1 | -0.6%
90 | O=C(O)CSc1nnc(COc2ccccc2)n1-c1ccccc1 | 1.4%
91 | Nc1nc(N)nc(-c2ccc(Oc3ccccc3)cc2)n1 | 0.8%
92 | O=C(Nc1ccc(F)c(F)c1)c1ccccc1 | -11.7%
93 | Cc1cc2c(NC(=O)CC(C)(C)CC(=O)O)cccc2nn1 | -13.4%
94 | Cc1cc([N+](=O)[O-])ccc1NC(=O)CSc1nncn1-c1ccccn1 | -5.4%
95 | COc1ccc(C2/C(=C(/O)c3ccccc3)C(=O)C(=O)N2C)cc1OC (stereo not drawn) | 12.8%
96 | CCOC(=O)c1c(C)oc2c1c1c(c3ccccc32)OCN(Cc2cccnc2)C1 | ?
97 | CCN(CC)CCn1c(C)nc2ccccc21 | 17.4%
98 | CC(OC(=O)c1ccncc1)C(=O)Nc1cccc([N+](=O)[O-])c1 (stereo not drawn) | -5.0%
99 | CCOC(=O)c1c(-c2ccccc2)oc2ccc(OCc3ccccc3Br)cc12 | -7.2%
100 | CSc1ccc(/C=N/n2c(C)nc3ccccc3c2=O)cc1 | -6.5%
101 | Cc1nn(Cc2ccc(Cl)cc2Cl)c(C)c1NC(=O)c1sc2ccccc2c1Cl | -3.4%
102 | COc1ccc(-c2csc(NC(=O)CCCc3nc4ccccc4c(=O)[nH]3)n2)cc1OC | 3.7%
103 | CC(Oc1ccc(Cl)cc1Cl)C(=O)NCCCn1ccnc1 (stereo not drawn) | -12.4%
104 | Cc1ccc(NC(=O)CCNS(=O)(=O)c2ccc3[nH]c(=O)oc3c2)cc1N(C)C | -5.9%
105 | O=C(CCNS(=O)(=O)c1ccc(Br)cc1)NCCc1ccc(Cl)cc1 | 15.9%
106 | NC(=O)c1ccc(-n2nnnc2SCC(=O)Nc2ccccc2)cc1 | 0.1%
107 | Cc1ccsc1C(=O)OCC(=O)Nc1cccc(F)c1 | 19.0%
108 | COCCC(=O)N1CCC(Oc2ccc(C(=O)NCc3ncc(C)[nH]3)cc2)CC1 | -5.7%
109 | COCC(=O)N(Cc1cc2ccc(C)c(C)c2n2nnnc12)C1CCCC1 | 8.9%
110 | CCc1c(C)c2ccc3c(c2oc1=O)CN(Cc1ccccc1)CO3 | 10.8%
111 | CC(=O)NCc1ccc(S(=O)(=O)N2CCN(c3ccccn3)CC2)cc1 | -6.3%
112 | Cc1ncoc1C(=O)N1CCc2c([nH]c3ccccc23)C1c1ccccc1F (stereo not drawn) | -2.1%
113 | Cc1ccc(C(C(=O)NCC2CCCO2)N(C(=O)c2snc(C(N)=O)c2N)c2ccc3c(c2)OCCO3)cc1 (stereo not drawn) | 20.0%
114 | CCOCCCNC(=O)/C(C#N)=C/c1cc(Br)c(O)c(Br)c1 | -13.4%
115 | COc1ccc(O)c(CN2CCCC(N3CCN(c4ccc(F)cc4)CC3)C2)c1 (stereo not drawn) | -16.7%
116 | COc1ccc(C2=C(C)C(N3CCC(C(=O)Nc4cc(C)ccc4C)CC3)=NS2(=O)=O)cc1 | 7.8%
117 | FC(F)(F)c1ccccc1-c1ccc2ncnc(NC3CC3)c2c1 | ?
118 | Cc1ccc(/C=C/C(=O)OCC(=O)NCc2ccccc2)o1 | 1.2%
